KCNQ2 pot: enhances the rat KCNQ2 potassium channel; O88943; CHO-K1 KCNQ2, FluxOR thallium flux fluorescence; hits give high values; B-score at 10 µM; 0.54% of 310,000 active; AID 2239;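 active = fluorescence ratio B-score at least 3 SD of library B-scores, with initial fluorescence B-score within 3 SD, cut at about 5.3 in these data; same plate scores as AID 2156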;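 also: B-score of peak minus minimum over baseline fluorescence ratio after K+ and Tl+ stimulus; positive B-score means potentiation of KCNQ2 with more thallium influx and brighter signal; only the inactives scoring about 0 or higher are listed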
Target sequence (O88943 whole entry, looked up): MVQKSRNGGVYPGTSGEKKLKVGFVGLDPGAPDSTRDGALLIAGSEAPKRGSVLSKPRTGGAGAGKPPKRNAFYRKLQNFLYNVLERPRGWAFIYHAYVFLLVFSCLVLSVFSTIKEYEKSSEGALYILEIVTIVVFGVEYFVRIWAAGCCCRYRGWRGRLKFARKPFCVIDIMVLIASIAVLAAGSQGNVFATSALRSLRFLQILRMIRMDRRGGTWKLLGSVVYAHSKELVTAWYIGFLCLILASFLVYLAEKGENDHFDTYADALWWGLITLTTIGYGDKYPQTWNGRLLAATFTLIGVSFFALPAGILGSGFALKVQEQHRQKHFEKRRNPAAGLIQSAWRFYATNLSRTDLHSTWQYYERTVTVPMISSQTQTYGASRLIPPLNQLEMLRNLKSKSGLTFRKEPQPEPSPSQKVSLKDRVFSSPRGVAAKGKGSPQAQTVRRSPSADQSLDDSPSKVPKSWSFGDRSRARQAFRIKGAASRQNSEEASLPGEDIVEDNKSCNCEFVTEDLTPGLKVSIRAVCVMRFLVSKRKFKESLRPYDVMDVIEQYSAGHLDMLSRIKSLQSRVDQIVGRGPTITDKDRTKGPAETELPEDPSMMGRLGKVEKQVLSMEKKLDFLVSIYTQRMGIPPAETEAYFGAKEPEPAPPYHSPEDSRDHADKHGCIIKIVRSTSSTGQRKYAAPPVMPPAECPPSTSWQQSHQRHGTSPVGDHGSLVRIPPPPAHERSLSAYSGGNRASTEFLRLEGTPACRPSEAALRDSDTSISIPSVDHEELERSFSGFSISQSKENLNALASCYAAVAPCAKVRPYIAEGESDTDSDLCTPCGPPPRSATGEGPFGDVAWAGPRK
KCNQ2 pot baseline: also measured in KCNQ2 pot; calls as there; B-score; compound at 10 µM; measured here: initial fluorescence intensity artifact check;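 brightness before thallium and not channel activity; 0 = typical well and far values either way flag optical interference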
Starred values were filed as active, the others as inactive. This is a subset; the hit share may differ from the screen's.

SMILES	KCNQ2 pot	KCNQ2 pot baseline
Cc1nnsc1C(=O)NNc1c(Cl)cccc1Cl	1.8	0.33
COc1cccc(CC(=O)NC2CCCN(Cc3ccc(Cl)cc3)C2)c1 (centres undefined)	0.06	0.96
CCOC(=O)c1c(C)c(C(=O)NCCCOC(C)C)c(C)n1C	1.3	-0.99
CC12CCC(C(=O)Nc3ncc([N+](=O)[O-])s3)(OC1=O)C2(C)C (centres undefined)	0.7	-0.57
CCOC(=O)c1c(C)nc2c(c1C)/C(=N/O)CC(C)(C)C2	1.8	6
COc1ccc(CCN2C(=O)CC(Cc3ccc(C)cc3)C2=O)cc1OC (centres undefined)	0.42	1.4
CCCn1c(=N)n(CC(=O)c2ccc([N+](=O)[O-])cc2)c2ccccc21	0.72	1.3
O=C(CCC1CCCN(C(=O)c2cccs2)C1)N1CCN(c2ccccn2)CC1 (centres undefined)	0.66	-0.05
C=CCN1C(=O)c2ccc(C(=O)N(C)Cc3ccc(C)o3)cc2C1=O	1.1	2.4
Cc1ccc(C(=O)OCC(=O)Nc2c(Cl)cc(S(N)(=O)=O)cc2Cl)o1	0.71	0.08
CNC(=O)c1ccc(N(Cc2ccccc2)S(C)(=O)=O)cc1	0.01	0.02
CC(OC(=O)C1=NNC(=O)CC1)C(=O)Nc1ncc(Cl)cc1Cl (centres undefined)	0.03	0.37
O=C(c1ccc2c(=O)n(Cc3ccccc3)c(=S)[nH]c2c1)N1CCOCC1	1.4	0.6
CCOc1ccc2nc(SCC(=O)NNC(=O)c3ccco3)c(C)cc2c1	1.7	-0.16
O=C(OC(C(=O)NCC1CCCO1)c1ccc(F)cc1)c1ccco1 (centres undefined)	1.2	-1.5
CN(C(=O)c1cc2n(n1)C(C(F)(F)F)CC(c1ccco1)N2)c1ccc(OC(F)(F)F)cc1 (centres undefined)	0.04	0.39
CC1CCN(C(=O)COC(=O)c2ccc(Br)o2)CC1	1.4	-1.6
CCNC(=S)N/N=C/c1ccc(OCC(=O)Nc2ccc(C)cc2)cc1	0.94	-0.22
Cc1ccc(NC(=O)CSCC(=O)Nc2ccccc2N2CCCCC2)cc1	2.8	1.1
Cc1nn(CCCC(=O)Nc2cccnc2Cl)c(C)c1[N+](=O)[O-]	2.2	-0.4
CCC1(c2ccccc2)C(=O)NCNC1=O	0.11	-0.47
C=CCOC(=O)C1=C(C)OC(N)=C(C#N)C1c1ccc(F)cc1 (centres undefined)	0.51	0.01
Cc1cccc(-n2ncc3c2CCCC3NC(=O)CN2CCCC2=O)c1C (centres undefined)	0.9	2.8
CC(C)(C)c1ccc(/C=N/N2CCN(c3ccccn3)CC2)cc1	0.1	-1.6
C/C(CC(=O)Nc1cccc(C(F)(F)F)c1)=N/NC(=O)C(=O)NCCO	0.02	2
O=C(CNC(=O)c1ccc(Cl)cc1Cl)OCCCn1c(=O)[nH]c2ccccc21	0.06	0.76
O=C1CCCN1CCCNC(=S)Nc1ccc(Nc2ccccc2)cc1	1.2	-0.89
CCCN1C2CCCC1CC(NC(=S)Nc1cccc(C)c1)C2 (centres undefined)	0.69	0.27
CS(=O)(=O)c1ccccc1C(=O)Nc1ccc2sccc2c1	0.33	0.56
CCC(C)NC(=O)Cc1cn(C)c2ccccc12 (centres undefined)	0.7	0.11
O=C(O)c1ccc(NC(=S)NC2CCCCC2)cc1	0.1	0.38
Cc1nn(CC(=O)N2CCN(c3ccccn3)CC2)c(=O)c2cc3sccc3n12	0.96	-0.68
NS(=O)(=O)c1ccc(NS(=O)(=O)c2ccc(NC(=O)C3CC3)cc2)cc1	0.06	-0.51
CCn1nc(C)c(CNC(=O)CC2C(=O)NCCN2Cc2ccc(C)o2)c1C (centres undefined)	0.9	0.02
Cc1nc2ccc(S(=O)(=O)NCC(=O)Nc3ccc(F)cc3)cc2s1	0.64	-0.46
Cc1ccc(/C=N/Nc2ncc(Cl)cc2Cl)s1	0.52	-0.01
Cc1ccc(N(C)S(=O)(=O)c2ccc(-c3ccc(=O)[nH]n3)s2)cc1C	1.3	0.66
COc1ccc(C2=NO[C@@H]3C(=O)N(C4CCCCC4)C(=O)[C@H]23)cc1OC	0.87	0.42
CCNc1nc(NCC)nc(N/N=C/c2ccc([N+](=O)[O-])o2)n1	1.1	1.4
c1cncc(Cc2cc3ccccc3[nH]2)c1	0.61	2.7
COc1ccc(CCNC(=O)CSc2nn3c(=O)c(C)nnc3s2)cc1OC	0.41	0.01
CCN(CC)CCCNC(=O)C1CCN(c2ncnc3c2sc2cccc(F)c23)CC1	1.6	-0.01
CCOc1c(Br)cc(/C=C2/SC(=O)N(CC(=O)N3CCCC3)C2=O)cc1OC	0.93	-0.35
O=C(CCSc1ccccc1)NCc1cccnc1	0.8	0.09
CC(NC(=O)Nc1ccc(Cl)cc1)C(c1cccs1)N1CCOCC1 (centres undefined)	0.17	-0.05
COc1ccc(NC(=O)N2CCN(c3nc(-c4cccc(OC)c4)cs3)CC2)cc1	3.4	0.31
Cc1ccc(Cn2nc3c(cc2=O)CCc2ccccc2-3)cc1	0.03	1.6
Cc1ccc(NC(=O)CSc2nnc(CNC(=O)C34CC5CC(CC(C5)C3)C4)n2-c2ccc(F)cc2)cc1	0.08	-2.1
O=[N+]([O-])c1ccccc1S(=O)(=O)N1CCN(c2ccccn2)CC1	0.12	-0.16
Cc1ccc(-c2cc(C)nc3ncnn23)cc1	0.01	-0.47
(cont.)
SMILES	KCNQ2 pot	KCNQ2 pot baseline
C=CCn1c(-c2sc3nc(C)cc(C)c3c2N)n[nH]c1=S	1.5	-0.79
COc1ccc(Br)c(C(=O)N(C)CC(=O)Nc2ccc(N3CCOCC3)cc2)c1	1.1	-0.71
O=C(O)c1ccc(-n2c(-c3cc(-c4ccco4)[nH]n3)n[nH]c2=S)cc1	0.64	-2
N/C(=N\NC(=O)Nc1ccc(Cl)cc1)c1ccccn1	1.4	-1.3
CC(=O)Nc1ccc(NC(=O)CCN2C(=O)c3ccccc3C2=O)cc1	0.13	1.2
CCOC(=O)c1cc(NC(=O)Nc2ccccn2)c(C)nc1C	0.78	1.1
O=C1CC(C(=O)N2CCN(c3ccccc3O)CC2)CN1Cc1ccccc1 (centres undefined)	0.63	-1.4
O=C(Nc1ccnn1C1CCN(Cc2ccn[nH]2)CC1)c1ccccc1	1.5	-1.6
COc1cc(C=O)ccc1OCCSc1ccc(Cl)cc1	0.5	2.2
COc1cc(/C=N/N2C(=O)C3C4C=CC(CC4)C3C2=O)ccc1O (centres undefined)	0.36	-0.57
O=C(N/N=C/C1CCCCC1)c1ccccn1	0.71	0.51
O=C(NCCCN1CCOCC1)c1sc2cc(F)ccc2c1Cl	1.6	1.3
Cc1ccc(C(C)C)c(OCc2nn(CC(=O)c3ccc(Cl)cc3)c3[n+]2CCCCC3)c1	0.47	-1.2
NNC(=O)CCCCCCCCCCOCCCCO	0.72	0.05
CC(=O)Nc1ccc(NC(=O)CCCn2cnc3ccccc3c2=O)cc1	1.7	2.1
COC(=O)c1ccccc1NC(=O)CSc1nnc(C(CO)NC(=O)c2ccccc2)n1C (centres undefined)	0.19	1.6
COc1ccc(CNc2nc(-c3cccnc3)nn2C(=O)c2ccco2)cc1	0.01	-4
CCC(C)C(=O)Nc1nc2c(s1)C(=O)CC(C)(C)C2 (centres undefined)	0.02	-0.28
O=C(NCCCN1CCCC1=O)C1CCN(S(=O)(=O)c2cccc(C(F)(F)F)c2)CC1	0.01	0.96
O=C(CCNc1cccc(C(F)(F)F)c1)c1ccco1	0.06	-0.55

By substructure: the entries above containing a COOH group
SMILES	KCNQ2 pot	KCNQ2 pot baseline
O=C(O)c1ccc(NC(=S)NC2CCCCC2)cc1	0.1	0.38
O=C(O)c1ccc(-n2c(-c3cc(-c4ccco4)[nH]n3)n[nH]c2=S)cc1	0.64	-2

More entries follow.
SMILES	KCNQ2 pot	KCNQ2 pot baseline
COc1ccc(NS(=O)(=O)c2cc(NC(=O)C3CCCO3)ccc2N2CCCCC2)cc1 (centres undefined)	1.1	1.5
C=CCn1c(O)c2ccc(C(=O)N=NC(=O)COc3ccccc3F)cc2c1O	0.91	1.6
C=CCn1c(-c2cnn(-c3ccccc3)c2N)n[nH]c1=S	0.15	-1.2
CCN1C(=O)[C@H]2[C@@H](c3ccc(C)cc3)N3C(=O)N(c4ccc(OC)cc4)C(=O)[C@@]3(CC)[C@H]2C1=O	0.67	-1.5
CCCc1cc(=O)oc2cc(OCC(=O)N3CCC(C(N)=O)CC3)ccc12	0.08	-0.03
O=[N+]([O-])c1ccc(C[n+]2cccc(O)c2)cc1	0.73	-0.81
CCOc1cc(C(=O)Nc2nnc(C)s2)cc(OCC)c1OCC	1.6	0.86
COc1ccc(OC(C)C(=O)N2CC(C)OC(C)C2)cc1 (centres undefined)	0.01	0.41
CC(C)(C)CN1CCNC(=O)C1CC(=O)N1CCC(C(=O)N2CCOCC2)CC1 (centres undefined)	1.6	-2.1
CCOc1cc(C2CC(=O)NC3=C2C(=O)C(C(=O)OC)C(C)C3)cc(Cl)c1O (centres undefined)	1.1	-0.52
COc1ccc(N2CCN(C(=O)CCS(=O)(=O)c3ccc4c(c3)NC(=O)CO4)CC2)cc1	1.6	0.49
Cc1ccc(S(=O)(=O)NNC(=O)c2ccccc2-n2cccc2)cc1	1	-0.71
Cc1ccc2nnnc(-c3ccccc3)c2c1	2	-0.15
CCOC(=O)c1cc(C#N)c(N2CCN(C(=O)c3cccc(C(F)(F)F)c3)CC2)nc1C(F)(F)F	0.04	-1.8
CC(C)N(CCCNC(=O)CC1Oc2ccccc2NC1=O)Cc1ccccc1 (centres undefined)	1.7	0.01
CCn1cc(C(=O)NCc2ccc(Cl)cc2)c(=O)c2cc(S(=O)(=O)N3CCOCC3)ccc21	2	0.02
NNc1nc(-c2ccccc2)cc(-c2ccc(Br)cc2)n1	0.11	-0.65
COCCNC(=O)CSc1nccn1Cc1ccc2c(c1)OCO2	1	0.35
COc1ccc(N2C(=O)CCC(C(=O)c3ccccc3)=C2C)cc1	0.03	-0.07
CN(C)CCNC(=O)c1ccc(-c2nn(C)c(=O)c3ccccc23)cc1	2.6	0.62
CCCOc1ccc(N2C(=O)CC(NCC(=O)OCC)C2=O)cc1 (centres undefined)	0.54	-0.61
O=C(COC(=O)CCC1CCCCC1)Nc1ccc(OC(F)F)cc1	0.02	-0.13
CC(C)(C)c1ccc(CS(=O)(=O)CC2(O)CCN(C(=O)c3cccc(C(F)(F)F)c3)CC2)cc1	0.41	-0.74
CCN(CC)CCNC(=O)c1cc(Sc2nnc(C)s2)nc2ccccc12	0.73	0.11
O=C(NCc1ccccc1)c1ccc(Cl)cc1[N+](=O)[O-]	0.59	1.3
Cc1ccccc1CS(=O)(=O)Cc1ccc(C(=O)NCC2CCCO2)o1 (centres undefined)	0.85	-1
CCCCOc1ccc(NC(=O)CSc2nnnn2C)cc1	0.25	-0.71
CC(=O)Nc1cccc(-c2nnc(-c3ccccc3)o2)c1	1.1	-0.05
COc1ccc(CCNc2oc(-c3ccccc3OC)nc2C#N)cc1OC	2.1	-2.2
Fc1cc(Cl)ccc1NC1=NCCCCC1	1	1.5
Cc1[nH]n(C2=NCCS2)c(=O)c1N=Nc1ccccc1	2.7	-0.31
O=C(O)C1=C[C@@H](c2csc3ccccc23)C[C@@H](OCc2ccc(CO)cc2)O1	0.59	-1.1
O=C(COc1cc2oc(=O)c3c(c2cc1Cl)CCC3)NCCCn1ccnc1	0.48	1.2
COC(=O)CSc1ncnc2c(C)csc12	0.57	2.4
Cc1ccc(NC(=O)CSCC(=O)NNC(=O)c2ccoc2C)cc1	0.02	2.3
O=C(CCC(=O)c1ccc(Br)cc1)Nc1ccc(F)cc1	1	-1.3
COC(=O)CC1C(=O)NCCN1C(=O)c1ccc([N+](=O)[O-])cc1 (centres undefined)	0.14	-2
NC(=O)CC(NC(=O)Cc1ccc(Cl)cc1)c1ccc(NCCOc2ccccc2)c([N+](=O)[O-])c1 (centres undefined)	0.14	0.29
COc1ccccc1NC(=O)Nc1nc(CC(=O)Nc2ccc(N(C)C)cc2)cs1	1.2	-0.87
O=C(Cc1cccs1)Nc1ccc(-c2nc3ccccc3[nH]2)cc1	0.47	0.83

Structural class: those above containing two or more sulfur atoms
SMILES	KCNQ2 pot	KCNQ2 pot baseline
CS(=O)(=O)c1ccccc1C(=O)Nc1ccc2sccc2c1	0.33	0.56
NS(=O)(=O)c1ccc(NS(=O)(=O)c2ccc(NC(=O)C3CC3)cc2)cc1	0.06	-0.51
Cc1nc2ccc(S(=O)(=O)NCC(=O)Nc3ccc(F)cc3)cc2s1	0.64	-0.46
Cc1ccc(N(C)S(=O)(=O)c2ccc(-c3ccc(=O)[nH]n3)s2)cc1C	1.3	0.66
COc1ccc(CCNC(=O)CSc2nn3c(=O)c(C)nnc3s2)cc1OC	0.41	0.01
C=CCn1c(-c2sc3nc(C)cc(C)c3c2N)n[nH]c1=S	1.5	-0.79
CCN(CC)CCNC(=O)c1cc(Sc2nnc(C)s2)nc2ccccc12	0.73	0.11
COC(=O)CSc1ncnc2c(C)csc12	0.57	2.4

Other structures
SMILES	KCNQ2 pot	KCNQ2 pot baseline
Cc1cccc(C(=O)NNS(=O)(=O)c2ccccc2[N+](=O)[O-])c1	0.07	0.67
Cc1cc(OCc2nnc(SCC(=O)O)n2-c2ccccc2)ccc1Cl	0.28	-1.4
Cc1ccc(C(=O)c2c3ccccc3[n+]([O-])n2CCO)cc1	1.7	-0.13
CC(=C/c1ccco1)/C=N/NC(=O)c1nnn(-c2nonc2N)c1CN(C)C	0.95	-1.4
COc1ccc(S(=O)(=O)Nc2ccc3c(c2)N(C(C)=O)CCC3)cc1	1.9	0.38
COc1ccc(C(=O)/C(C)=N/O)cc1OC	1.9	-0.02
C=CCNC(=S)N(CC=C)C1CCS(=O)(=O)C1 (centres undefined)	1.1	0.1
O=C(COc1ccc(Cl)cc1)NCC(=O)N/N=C/c1cccs1	0.42	2.4

Screening results from PubChem BioAssay.
